Compound activity deposited in PubChem by Johns Hopkins Ion Channel Center.
KCNQ2 enhance: enhances the rat KCNQ2 potassium channel; O88943; CHO-K1 KCNQ2, FluxOR thallium flux fluorescence; active compounds read high; B-score at 10 µM; actives 0.54% (n = 310,000);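 active = fluorescence ratio B-score at least 3 SD of library B-scores, with initial fluorescence B-score within 3 SD, cut at about 5.3 in these data; same plate scores as AID 2156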;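 note: B-score of peak minus minimum over baseline fluorescence ratio after K+ and Tl+ stimulus; positive B-score means potentiation of KCNQ2 with more thallium influx and brighter signal; only the inactives scoring about 0 or higher are listed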
Target sequence (O88943 whole entry, looked up): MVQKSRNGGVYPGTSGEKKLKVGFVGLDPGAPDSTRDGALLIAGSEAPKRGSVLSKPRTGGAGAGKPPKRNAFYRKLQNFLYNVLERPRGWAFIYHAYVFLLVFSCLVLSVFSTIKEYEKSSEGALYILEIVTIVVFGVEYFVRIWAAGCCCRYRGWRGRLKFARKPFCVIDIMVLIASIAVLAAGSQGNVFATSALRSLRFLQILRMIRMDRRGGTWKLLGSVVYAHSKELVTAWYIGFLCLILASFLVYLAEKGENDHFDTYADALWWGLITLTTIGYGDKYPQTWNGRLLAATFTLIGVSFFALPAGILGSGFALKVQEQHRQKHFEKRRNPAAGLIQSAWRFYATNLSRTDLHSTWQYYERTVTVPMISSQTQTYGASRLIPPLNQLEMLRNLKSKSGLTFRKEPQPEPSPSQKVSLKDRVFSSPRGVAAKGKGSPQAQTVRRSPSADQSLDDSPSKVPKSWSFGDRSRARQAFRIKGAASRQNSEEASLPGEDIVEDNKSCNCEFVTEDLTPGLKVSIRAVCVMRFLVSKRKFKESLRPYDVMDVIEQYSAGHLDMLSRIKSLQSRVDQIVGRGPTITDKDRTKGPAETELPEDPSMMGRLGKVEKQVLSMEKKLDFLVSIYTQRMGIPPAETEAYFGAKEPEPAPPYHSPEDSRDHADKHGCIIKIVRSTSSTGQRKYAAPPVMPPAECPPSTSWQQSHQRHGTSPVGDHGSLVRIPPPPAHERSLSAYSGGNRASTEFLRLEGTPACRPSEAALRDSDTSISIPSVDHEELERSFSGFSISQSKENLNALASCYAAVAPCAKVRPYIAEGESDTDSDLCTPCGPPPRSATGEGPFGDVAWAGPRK
KCNQ2 enhance baseline: second read-out of KCNQ2 enhance, no call of its own (marks repeat the call); B-score; compound at 10 µM; measured here: initial fluorescence intensity artifact check;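 brightness before thallium and not channel activity; 0 = typical well and far values either way flag optical interference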
The depositor's hits bear a star.

SMILES | KCNQ2 enhance | KCNQ2 enhance baseline
Cc1cccc(C)c1NC(=O)CC1SC2=NCCN2C1=O (stereo not drawn) | 0.01 | 0.22
Cc1ccc(-c2csc(/C(C#N)=C(\O)CCl)n2)cc1 | 1.8 | -0.52
O=C(CSc1ccc2nnc(-c3cccnc3)n2n1)N1CCOCC1 | 0.41 | -2.2
CC1(C(=O)NCCN2CCOCC2)C=CC2(CCCCC2)N1C(=O)c1ccccc1 (stereo not drawn) | 0.55 | 0.81
O=[N+]([O-])c1ccc(N2CCOCC2)cc1N1CCCCC1 | 1.8 | -1.8
COc1cccc(NC(=O)C23CCC(C)(C(=O)O2)C3(C)C)c1 (stereo not drawn) | 0.74 | 0.11
Cc1c(CC(=O)N[C@@H](C)C(=O)O)c(=O)oc2cc3occ(-c4ccccc4)c3cc12 | 1.4 | -0.7
Cc1nc2c(-c3ccccc3)c[nH]n2c(=O)c1Cc1ccccc1 | 1.1 | 0.15
CCC(=O)N1CCC2(CC1)Oc1ccc(F)cc1C(=O)C21CC(c2cccnc2)=NO1 (stereo not drawn) | 1.7 | -0.03
COc1cccc2[nH]c3c(N4CCN(Cc5ccc6c(c5)OCO6)CC4)ncnc3c12 | 1.1 | -0.75
O=C(NCc1nnc(SCC(=O)N2CCCC2)o1)c1ccccc1F | 3.6 | 0.2
COc1cc2c(cc1O)[C@@H]1Cc3cc(O)c(OC)cc3[C@H](C2)N1C | 0.74 | 0.4
CCCc1cc(C(=O)NCc2ccc(OC)cc2)no1 | 0.7 | 0.91
CCN(CC)S(=O)(=O)c1ccc(N2CCN(c3ccccc3O)CC2)nc1 | 1.6 | -0.73
Cc1ccc(-n2c(=O)c(C#N)cc3c(=O)n4cccc(C)c4nc32)cc1 | 0.55 | -0.01
CCc1ccccc1N1CC(C(=O)O)CC1=O (stereo not drawn) | 0.84 | 0.07
Cc1ccc(F)cc1NC(=O)N1CCNC(=O)C1CC(=O)Nc1cc(Cl)ccc1Cl (stereo not drawn) | 2.3 | 0.31
O=C(Nc1ccc(N2C(=O)C3C4C=CC(C4)C3C2=O)cc1)Nc1nncs1 (stereo not drawn) | 0.14 | -1.1
CC1CCC2C(=O)N(c3cccc(OS(=O)(=O)c4ccccc4)c3)C(=O)C2C1 (stereo not drawn) | 0.26 | 0.01
O=C(O)c1cc([N+](=O)[O-])c(Nc2cccc3ccccc23)c([N+](=O)[O-])c1 | 4 | 1.7
Cc1nc2ccccc2n1CC(O)COc1ccccc1Cl (stereo not drawn) | 2.5 | 0.56
CC(C)(C)C(=O)CN1C(=O)NC2(CCc3ccccc32)C1=O (stereo not drawn) | 0.18 | 0.79
CCc1ccccc1NC(=O)C(Cc1ccccc1)c1nn[nH]n1 (stereo not drawn) | 1.9 | 1.1
O=C(Cc1ccccc1)Nc1ccc(C(=O)NCC2COc3ccccc3O2)cc1 (stereo not drawn) | 0.37 | 0.75
CN(C)S(=O)(=O)c1ccc(Cl)c(NC(=O)COc2ccccc2[N+](=O)[O-])c1 | 0.69 | -0.09
COc1cccc(CNC(=O)CCCSc2ccccc2)c1 | 3.2 | -1.3
O=C(Nc1ccc(N2CCOCC2)cc1)c1ccc(-c2ccccc2[N+](=O)[O-])o1 | 2.7 | 0.89
CC(C)(C)Nc1c(N)c(=O)oc2ccccc12 | 0.92 | -0.34
COc1cccc(C(=O)/C=C/c2ccc(OCC#N)c(OC)c2)c1 | 0.16 | -1
COc1ccc(Nc2nnc(SCC3CCCCO3)s2)cc1 (stereo not drawn) | 2.9 | -0.52
O=S(=O)(NCCN1CCOCC1)c1cc(Cl)ccc1Cl | 0.75 | 1.7
COc1ccc(CC(=O)NCC2(c3ccc(OC)c(OC)c3)CCOCC2)cc1 | 1.3 | -0.97
O=C(O)/C=C/C(=O)Nc1ccccc1-c1ccccc1NC(=O)/C=C/C(=O)O | 0.39 | -2.6
O=C(N/N=C/c1ccc(OCC(=O)N2CCCCC2)cc1)c1ccccc1 | 0.37 | -1.1
COc1cc(/C=N/n2nnnc2Nc2ccccc2)cc(OC)c1OC | 0.15 | 0.01
NNC(=S)Nc1c(Br)cc(F)cc1Br | 0.17 | 0.63
N#C/C(=C\N1CCCCC1)S(=O)(=O)c1ccc(Cl)cc1 | 0.04 | 0.64
CC(C)N(C(=O)c1ccc(C(=O)Nc2ccc([N+](=O)[O-])cc2)cc1)C(C)C | 0.06 | 0.6
COc1ccc2[nH]cc(CCNC(C)=O)c2c1 | 2.1 | -1.2
COc1ccc(C(=O)NC2CCN(S(=O)(=O)c3ccccc3F)CC2)cc1 | 0.52 | 0.06
N#CC1=C(N)C(C#N)(C#N)C(c2ccc[nH]2)C2CCCC=C12 (stereo not drawn) | 0.42 | -0.44
C#CCOCCOCCOCCNc1nc(N2CCN(C(=O)C([C@@H](C)CC)n3cc(C(N)CC(C)C)nn3)CC2)nc(N2CCN(C(=O)[C@H](CCC(=O)O)n3cc(C(N)[C@H](C)CC)nn3)CC2)n1 (stereo partly drawn) | 0.12 | 0.8
COc1ccc(CN2CCNC(=O)C2CC(=O)NC2CCCC2)c(C)c1C (stereo not drawn) | 0.46 | 0.32
OCC1(Cc2ccccc2)CCCN(Cc2cnn(-c3ccccc3)c2)C1 (stereo not drawn) | 0.6 | 0.15
CCCCn1c(=NC(=O)c2ccco2)c(C(=O)OCC)cc2c(=O)n3cccc(C)c3nc21 | 2 | -0.81
C/C(N)=C(/C#N)C(=O)CSc1nnc(Nc2ccccc2)s1 | 0.01 | 2
Cn1nccc1NC(=O)Nc1ccccc1 | 0.62 | -0.01
O=C(CCC(=O)Nc1ccccc1)N/N=C/c1cccnc1 | 0.33 | -1.1
Cc1[nH]c(=O)c(S(=O)(=O)c2ccccc2)c(C)c1Cl | 0.84 | 1.6
CC(=O)NCC(=O)NNC1CC(=O)N(c2cccc(Cl)c2)C1=O (stereo not drawn) | 1.2 | 1.5
CCOc1ccc2c(c1)sc(N)[n+]2Cc1cc(C)cc2cccnc12 | 0.71 | 0.32
O=C(NCC1CCCO1)c1ccccc1OCc1ccc(Cl)cc1 (stereo not drawn) | 1.5 | -1.3
CCOc1ccc2[nH]cc(C(=O)NCCc3ccccc3)c(=O)c2c1 | 1.2 | -0.76
CCNC(=S)N(CCCO)Cc1cc2cc3c(cc2[nH]c1=O)OCCO3 | 2.3 | 0.25
NC(=O)C[C@@H]1NC(=O)CNC(=O)c2cc([N+](=O)[O-])cc(I)c2NCCC(C(N)=O)NC1=O (stereo partly drawn) | 2.4 | -0.71
CCN(CC)CCN1C2=C(C(=O)CC(C)(C)C2)C(c2cccc(F)c2)C2=C1CC(C)(C)CC2=O | 1.8 | -0.57
Cc1nnc(SCc2cc(=O)oc3cc(O)ccc23)n1Cc1ccccc1 | 0.93 | 2.2
COc1cc(C(C(=O)NC(C)(C)C)N(C(=O)CNC(=O)c2cccs2)c2ccccc2)cc(OC)c1OC (stereo not drawn) | 0.71 | -0.7
CCN(CC)S(=O)(=O)c1ccc(C(=O)N2CCN(C3=NS(=O)(=O)c4ccccc43)CC2)cc1 | 0.19 | 1.6
CCCCCCc1nnc(NC(=O)OCC)s1 | 0.15 | 0.01
Continuation.
SMILES | KCNQ2 enhance | KCNQ2 enhance baseline
O=C(c1ccco1)N1CCN(c2ccc(Cl)cc2)CC1 | 0.52 | 1.7
CC(=O)Nc1ccccc1C(=O)C(=O)Nc1ccc(F)cc1 | 0.02 | -0.05
O=C(c1ccccc1)c1ccncc1 | 0.02 | -0.55
COc1ccc(NCCNc2ccc(OC)cc2)cc1 | 0.16 | 1.4
Cc1ccc(S(=O)(=O)N(C)C)cc1NC(=O)COC(=O)COc1ccccc1[N+](=O)[O-] | 0.18 | -1.3
O=C(Cc1ccccc1Cl)NNC(=O)Nc1ccccc1 | 0.14 | 1.3
CCOc1ccc(N(C)C(=O)CCc2nnc3ccc(N4CCCCC4)nn23)cc1 | 0.49 | 1.7
CCCn1nc(NC(=O)COC)c2cc3cc(C)ccc3nc21 | 1.1 | 0.37
O=c1[nH]c2ccc(S(=O)(=O)N3CCN(c4ccccc4F)CC3)cc2s1 | 1.2 | -0.08
Cc1ccc(-n2nnnc2SCC(=O)Nc2sc(C)c(C)c2C#N)cc1C | 0.06 | -0.95
CC1CC1C(=O)OCC(=O)Nc1ccc(N=Nc2ccccc2)cc1 (stereo not drawn) | 0.08 | 1.2
CC(=O)Nn1cnc2c(c1=O)C1(CCCCC1)Cc1ccccc1-2 | 3 | -0.02
Cc1ccc(N2C(=O)C3C(C2=O)N2C(c4cccs4)C4C(=O)N(c5ccc(C)cc5)C(=O)C4N2C3c2cccs2)cc1 (stereo not drawn) | 0.27 | 0.59
COc1ccc(OC)c(NC(=O)Cn2cc(C=O)c3ccccc32)c1 | 0.67 | 0.84
O=C(CSc1ccc2nnc(-c3ccccn3)n2n1)N1CCN(c2ccccc2)CC1 | 0.06 | 1.6
Cc1ccc(S(=O)(=O)Oc2ccc(/C=C(/NC(=O)c3ccccc3)C(=O)NCCCC(=O)O)cc2)cc1 | 0.01 | 1.4
CCOc1ccc(N2Cc3ncccc3C2=O)cc1 | 0.03 | -0.05
COc1ccc(C(=O)N/N=C/c2cc(Br)ccc2O)cc1OC | 1.6 | 0.08
CCOC(=O)NC(Cc1c[nH]c2ccccc12)C(=O)NCCc1ccc(S(N)(=O)=O)cc1 (stereo not drawn) | 0.78 | -0.28
Cc1onc(C(=O)Nc2sc3c(c2C(N)=O)CCCC3)c1[N+](=O)[O-] | 1.5 | 0.39
COC(=O)c1ccccc1C(=O)N1CCCC(C(=O)c2ccc(OC)c(OC)c2)C1 (stereo not drawn) | 0.26 | -0.08
CCOC(=O)c1cc(-c2ccccc2)sc1NC(=O)CC | 0.81 | 0.25
O=C1COc2ccc(C(=O)COC(=O)c3ccccc3[N+](=O)[O-])cc2N1 | 0.05 | 0.44
Cc1cc(C)nc(N2CCC(C(=O)NCCc3ccccc3)CC2)n1 | 0.3 | -0.28
Cc1cc(C)c2nc(SCC#N)cc(C)c2c1 | 0.56 | -0.1
Oc1ccc(C=Nc2ccccc2-c2nc3ccccc3[nH]2)cc1 | 0.33 | -0.03
Cc1ccc(NC(=O)c2cncc(Br)c2)c(O)c1 | 2.2 | -1.4
O=C(c1ccccc1)N1CCN(C2CCCCC2)CC1 | 0.88 | -1.1
CCn1c(SCC(=O)Nc2cc(C)on2)nnc1-c1cccc(C)c1 | 1.9 | 1.7
O=C(O)CCc1[nH]c2ccccc2c1Sc1ccccc1 | 0.9 | 0.69
CC(C)c1ccc(NS(=O)(=O)c2ccc3[nH]cc(C(=O)N4CCC(C(N)=O)CC4)c(=O)c3c2)cc1 | 0.06 | -0.64
Cc1cccc(NC(=O)Nc2c(C)n(C)n(-c3ccccc3)c2=O)c1 | 0.07 | 0.1
CCCc1nc2ccccc2c(NC(=O)CN(CC)CC)c1CC | 0.05 | 0.77
Cc1c(F)cccc1NC(=O)CSCC(=O)Nc1ccccc1 | 0.57 | -1.8
O=C(Oc1nsnc1N1CCOCC1)N1CCOCC1 | 1.4 | -0.22
COc1ccc2[nH]c(=O)c(CN(C)C(=O)C3CCCCC3)cc2c1 | 0.18 | 0.65
CCOC(=O)c1cccc(NC(=O)/C=C/c2ccc([N+](=O)[O-])cc2)c1 | 0.63 | 1.1
CCCCn1c(=O)[nH]c(=O)c2c1nc(-c1cc3c(cc1Br)OCO3)n2C | 2.9 | -1.5
CCOC(=O)CC1C(=O)NCCN1Cc1cccs1 (stereo not drawn) | 0.94 | 1.6
C/C(=N\NC(=O)C(C)n1nc(C)c([N+](=O)[O-])c1C)c1ccccc1O (stereo not drawn) | 3.1 | -2
CSc1ccccc1NC(=S)NC1CCCC1 | 1.1 | 0.17
CCOC(=O)N1CCC(N(CCN(C)C)C(=S)Nc2ccccc2C)CC1 | 0.97 | 0.8
CNS(=O)(=O)c1cnccc1N1CCN(c2cccc(C(F)(F)F)c2)CC1 | 0.18 | -1.5
FC(F)(F)c1cccc(OCc2noc(-c3ccsc3)n2)c1 | 0.18 | -1.9
O=C1c2ccccc2C(=O)N1Cc1ccc2c(c1)OCO2 | 1.4 | -2
CC1(C)Cc2c(c(-c3ccccc3)[nH]c(=O)c2C#N)CO1 | 1.4 | -0.01
COC(=O)c1ccc(C(=O)OC)c(NC(=O)CS(=O)(=O)Cc2ccccc2)c1 | 0.08 | 0.02

13 entries from above, with values under each structure:
Values run as follows: KCNQ2 enhance | KCNQ2 enhance baseline
O=C(Oc1nsnc1N1CCOCC1)N1CCOCC1
    1.4 | -0.22
COc1ccc2[nH]c(=O)c(CN(C)C(=O)C3CCCCC3)cc2c1
    0.18 | 0.65
CCOC(=O)c1cccc(NC(=O)/C=C/c2ccc([N+](=O)[O-])cc2)c1
    0.63 | 1.1
CCCCn1c(=O)[nH]c(=O)c2c1nc(-c1cc3c(cc1Br)OCO3)n2C
    2.9 | -1.5
CCOC(=O)CC1C(=O)NCCN1Cc1cccs1 (stereo not drawn)
    0.94 | 1.6
C/C(=N\NC(=O)C(C)n1nc(C)c([N+](=O)[O-])c1C)c1ccccc1O (stereo not drawn)
    3.1 | -2
CSc1ccccc1NC(=S)NC1CCCC1
    1.1 | 0.17
CCOC(=O)N1CCC(N(CCN(C)C)C(=S)Nc2ccccc2C)CC1
    0.97 | 0.8
CNS(=O)(=O)c1cnccc1N1CCN(c2cccc(C(F)(F)F)c2)CC1
    0.18 | -1.5
FC(F)(F)c1cccc(OCc2noc(-c3ccsc3)n2)c1
    0.18 | -1.9
O=C1c2ccccc2C(=O)N1Cc1ccc2c(c1)OCO2
    1.4 | -2
CC1(C)Cc2c(c(-c3ccccc3)[nH]c(=O)c2C#N)CO1
    1.4 | -0.01
COC(=O)c1ccc(C(=O)OC)c(NC(=O)CS(=O)(=O)Cc2ccccc2)c1
    0.08 | 0.02

In another format: 2 of the compounds above
Every second line gives: KCNQ2 enhance	KCNQ2 enhance baseline
O=C1c2ccccc2C(=O)N1Cc1ccc2c(c1)OCO2
    1.4	-2
CC1(C)Cc2c(c(-c3ccccc3)[nH]c(=O)c2C#N)CO1
    1.4	-0.01

Not all compounds are listed; the hit share may differ from the screen's.
